Screening data as filed in PubChem BioAssay.
Sfp PPTase inh – Sfp phosphopantetheinyl transferase inhibition | Q9F4F7 | Biochemical Sfp PPTase activity, qHTS | Potency, µM, for inactives: max response, negative = inhibition, actives largely listed as inhibitors | actives 3.5% (n = 310,000); active means well fitted inhibition curve with a large enough effect; inconclusive means small, poorly fitted or top-dose-only effect, or another doubt; inactive means no such curve, though single readings can be large or run the other way;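 further: the enzyme is Sfp with the accession as filed and its product quenches rhodamine fluorescence; potency means the concentration at half of the fitted maximal effect; 0% = enzyme reaction without inhibitor and -100% = no enzyme wells; top concentration of the series not given in the record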
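Fluorescence-quenching assay with 15 nM Sfp, 5 uM rhodamine-CoA and 12.5 uM BHQ-2-labelled ybbR peptide in pH 7.6 Hepes/MgCl2 buffer. Enzyme was pre-incubated with compound for 15 min at room temperature. Rate was taken from the 30-min fluorescence change (525/598 nm).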
gsp antag – antagonizes gsp, the McCune-Albright syndrome mutation. AID 624288. actives 0.4% (n = 340,000). gsp-mutant cells, cAMP HTRF, 30 min; control for the full effect not named in the record. Potency, µM (series often up to 76.9 µM), without a hit: at the highest dose activity change, negative = inhibition, usual class: inhibitors; active = falling curve of any shape with a large fitted effect; inconclusive = falling curve, mostly with a smaller effect; inactive = flat or rising curve; cell line not stated here;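 further: intracellular cAMP measured with PDE inhibitor Ro 20-1724 present during compound exposure; potency means the concentration at half of the fitted maximal effect; on the % scale 0 is the no-effect control and ±100 the full control effect; nearly all actives have a fitted effect of over 65% in size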
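Cells in G418 medium, seeded 16-24 h, 37C; buffer exchange to DPBS + 1 mM CaCl2, 0.5 mM MgCl2, 0.05% BSA; cpds in DMSO + […] (300 uM stock), 30 min 37C; HTRF cAMP detection.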
gsp ag – gsp mutant agonism | actives 0.13% (n = 340,000) | Potency, µM (series often up to 76.9 µM), without a hit: top-dose activation (cAMP increase), most hits filed as activators | AID 624287 | gsp mutant cells, cAMP HTRF, 30 min; control for the full effect not named in the record; active = well fitted activation curve with a large enough effect; inconclusive = small, poorly fitted or top-dose-only effect, or another doubt; inactive = no such curve, though single readings can be large or run the other way; cell line not stated here;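 further: phosphodiesterase inhibitor Ro 20-1724 added with compounds to block cAMP breakdown; potency means the concentration at half of the fitted maximal effect; nearly all actives have a fitted effect of over 60% in size; about a fifth of the inactives were tested at one dose only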
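Cells stably selected in G418 were plated at 2000/well, grown 16-24 hr, then given compounds in DMSO with the PDE inhibitor […] (300 uM solution added) for 30 min at 37C; cAMP was read by HTRF.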
D2 agonist – activates the human D2 dopamine receptor; P14416; DiscoveRx PathHunter D2 beta-arrestin, luminescence, 90 min; 100% = 57 uM dopamine signal; activation, % (test concentration not listed); actives 0.084% (n = 360,000); in the data active = activation above about 40%; inconclusive = about 15% to 40%; inactive = below about 15%; further: compound concentration not given in the record; the text of the record calls up to 30% inactive
Target sequence (P14416 whole entry, looked up): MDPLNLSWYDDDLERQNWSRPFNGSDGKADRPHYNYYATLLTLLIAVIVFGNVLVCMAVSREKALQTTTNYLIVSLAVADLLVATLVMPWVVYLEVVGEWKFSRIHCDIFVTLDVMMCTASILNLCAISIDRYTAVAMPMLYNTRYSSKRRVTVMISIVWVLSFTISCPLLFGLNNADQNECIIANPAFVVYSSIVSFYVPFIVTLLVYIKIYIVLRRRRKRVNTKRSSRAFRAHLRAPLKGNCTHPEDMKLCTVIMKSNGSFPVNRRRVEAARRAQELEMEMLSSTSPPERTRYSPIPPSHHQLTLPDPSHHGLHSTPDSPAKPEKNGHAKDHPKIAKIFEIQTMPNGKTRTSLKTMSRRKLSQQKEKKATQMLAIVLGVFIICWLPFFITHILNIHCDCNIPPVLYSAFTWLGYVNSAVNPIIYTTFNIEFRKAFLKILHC
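DiscoveRx PathHunter D2 beta-arrestin cells (2,100/well) attached overnight, then compound-stimulated 90 min at 37 C in HBSS/10 mM HEPES/0.1% Tween-20 buffer; beta-galactosidase complementation read by luminescence after 1 h at ambient temperature. Dopamine 57 uM final (EC100) as control.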
Menin-MLL FL inh – displaces fluorescein MLL peptide from human menin. AID 1766. 290,000 tested, under 10 active. Fluorescence polarization, fluorescein-MLL peptide displacement from menin. FP activity change, % at 61.4 µM; inconclusive = falling polarisation curve, or a change in total fluorescence; inactive = total fluorescence flat and polarisation flat or rising; no compound was filed as active; the % refers to the polarisation; negative = inhibition;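 further: % of control where 0% means no effect; inhibitors lower the polarisation; unlabelled MLL peptide was the positive control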
PINK1 modulator – PINK1 expression modulation | actives 0.2% (n = 410,000) | AID 624263 | PINK1 immunofluorescence, high-content cytometry, 24 h | Potency, µM (top dose mostly 76.6 µM), without a hit: at the top dose activation (PINK1 increase), most hits filed as activators; active = well fitted activation curve with a large enough effect; inconclusive = small, poorly fitted or top-dose-only effect; inactive = flat fitted curve, though single readings scatter; cell line not stated here;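 further: potency means the concentration at half of the fitted maximal effect; % of control where 0% means no effect; nearly all actives have a fitted effect of over 65% in size; a mitochondrial uncoupler was the plate control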
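Readout is PINK1 immunofluorescence, quantified alongside mitochondrial, cell and nuclear markers by laser-scanning microplate cytometry. Cells from a stable line were exposed to compound titrations (5 concentrations) for 24 hours, with CCCP controls.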
ClpP mod – qHTS Assay for Activators of ClpP | ATP-dependent Clp protease proteolytic subunit (Bacillus subtilis (strain 168)), P80244 | purified B. subtilis ClpP, FRET peptide cleavage, 20 min | Potency, µM (highest dose often 57.5 µM), inactives show at the top dose activity change, negative = active | actives 1.9% (n = 340,000) | AID 651965, 2013; active = well fitted falling curve with a large enough effect; inconclusive = small, poorly fitted or top-dose-only effect; inactive = no such curve, though single readings can be large or run the other way; further: potency means the concentration at half of the fitted maximal effect; the source files actives as falling curves though it sought activators and does not explain the sign; nearly all actives have a fitted effect of over 65% in size; many hits overshoot -100%
Target sequence (P80244 whole entry, looked up): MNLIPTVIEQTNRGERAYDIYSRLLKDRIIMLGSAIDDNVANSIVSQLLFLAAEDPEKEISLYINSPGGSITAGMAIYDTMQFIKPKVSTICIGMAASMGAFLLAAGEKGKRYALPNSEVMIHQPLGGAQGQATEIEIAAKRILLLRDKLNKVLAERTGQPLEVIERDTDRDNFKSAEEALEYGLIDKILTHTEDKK
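Purified B. subtilis ClpP, 10 microg/mL final in Tris/HCl pH8 with KCl, BSA, glycerol and Tween-20, cleaved an Abz/nitrotyrosine-quenched decapeptide. Fluorescence (ex 320, em 430) was read at 0 and 20 min at room temperature. Delta was normalized to 5.8 microM ADEP and DMSO/no-enzyme controls.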
* marks the source's active call; other numbers are inactive results; ? = inconclusive; . = not tested or not shown; & = joins results of further samples; [ ] = dose if it differs, or a comment. An excerpt; rates above refer to the full screens.

SMILES | Sfp PPTase inh | gsp antag | gsp ag | D2 agonist | Menin-MLL FL inh | PINK1 modulator | ClpP mod
CCN1C[C@]2(COC)CC[C@H](OC)[C@@]34C5C[C@H]6C(=O)C5[C@](O)(C[C@H]6OC)[C@@](O)(C(OC)C23)[C@@H]14 (some centres not stated) | . | 6.7% | . | -7.4 | . | -1.3% | -3.7%
Cc1ccccc1C1=NCC(=S)Nc2ccc(Cl)cc21 | -7.1% | -15.4% | -51.8%[inhibitor] | -6.6 | -2.5 | 4.7% | 1.0%
Nc1ccc(C2(c3ccc(N)cc3)CN3CCC2CC3)cc1 | 1.3% | -6.3% | 13.7% | -1.6 | 1.4 | -0.5% | -2.5%
O=C(NCc1ccco1)c1ccc(Cn2c(=O)c3ccccc3n(Cc3cccc(F)c3)c2=O)cc1 | -28.4% | 2.4% | -41.7%[inhibitor] | -2.6 | 7.3 | 6.6% | -15.3%
COc1ccc2c(c1)/C(=C/c1cnc[nH]1)C(=O)N2 | 2.1%&-6.1% | -20.6% | . | -6.3 | 1.9&-2.6&-1.0 | 0.1%&-0.4%&1.2% | -0.3%&-3.4%&-0.1%
CC(C)C1(C)N=C(c2ncccc2C(=O)O)NC1=O (configuration not stated) | -27.6% | 2.4% | -2.6% | 2.7 | 3.4 | . | -0.3%
Cc1cc(C=C2C(=O)N(C)C(=O)N(C)C2=O)c(C)n1-c1ccccc1 | -3.2% | 4.7% | ? | -2.7 | 0.7 | -0.7% | 1.4%
O=C1Nc2ccccc2/C1=C/c1cnc[nH]1 | 14.4% | 2.2% | 17.6% | -3.7 | 4.0 | -4.5%[38.3 µM] | -1.7%
CN(C)c1ccc(/C=C/[N+](=O)[O-])cc1 | -8.7% | -2.5% | 10.5%[15.4 µM] | -5.1 | 18.0 | 6.3% | .
CCn1c(=N)n(Cc2ccccc2F)c2ccccc21 | 18.0% | 10.2% | -2.4% | -1.4 | 3.7 | -0.4% | -1.7%
Cc1cccc(-n2c(-c3ccco3)nc3ccccc3c2=O)c1C | 10.7% | -1.9% | 6.7% | -1.8 | -3.8 | -0.2% | .
N#Cc1ccc(NC(=O)CN2CCCCCC2)cc1Cl | -8.5% | 5.8% | -10.0%[15.4 µM] | -3.0 | 3.1 | -1.2% | .
CN(C)/C=c1\sc2c(C#N)cc(C(=O)c3ccc(Br)cc3)n2c1=O | 1.3% | -6.5% | 2.8% | -1.0 | ? | 10.2% | 1.6%
COc1ccc(CN2C(=O)NC(=O)/C(=C/c3cc(OC)c(OC)c(OC)c3)C2=O)cc1 | 79.4µM* | 0.1% | 0.3%[15.4 µM] | -0.5 | ? | 1.3% | .
O=S(=O)(c1cc(Cl)cc(Cl)c1)N1Cc2cc(-c3cccc(F)c3)ccc2-n2nncc2C1 | . | . | . | 2.6 | . | 0.1% | -1.5%
CC(Cc1ccccc1Sc1ccccc1O)N(C)C (configuration not stated) | 2.9% | 8.4% | -18.1% | -2.8 | 0.1 | -1.2% | -8.1%
CC#CP(=O)(OC)C(O)(CF)c1ccccc1 (configuration not stated) | 1.8% | 12.5% | -10.0% | 4.2 | 1.1 | -1.2% | .
O=C1COc2ccc(C(=O)COC(=O)Cc3ccccc3)cc2N1 | . | 0.0% | 4.3%[15.4 µM] | 0.7 | . | -0.1% | .
CC(=NNC(=S)N1CC2CCC(CC2)C1)c1nccs1 | . | 2.5% | -29.9% | -9.0 | . | -6.9% | -8.8%
c1ccc(C(OCCN2CCNCC2)c2ccccc2)cc1 | -0.9% | 10.9% | 18.8% | -1.5 | 1.2 | 1.0% | -0.2%
COC(=NC1CCCCC1)C(O)c1c[nH]c2ccccc12 (configuration not stated) | 9.2% | 6.0% | -55.8%[inhibitor] | -2.5 | 2.8 | -0.9% | -3.4%
Cc1cc(C)nc(NS(=O)(=O)c2ccc(N=Cc3c(O)n(C)c(=O)n(C)c3=O)cc2)n1 | -17.5% | -2.6% | ? | 2.5 | ? | 0.8% | .
COc1ccc(NP(=O)(Nc2ccc(OC)cc2)Oc2ccccc2)cc1 | 1.9% | 9.6% | -26.6% | -6.1 | -2.4 | 2.9% | 1.0%
OCC1CN1C1CCCCC1 (configuration not stated) | . | 1.8% | 11.9%[15.4 µM] | -2.6 | . | -1.1% | -0.8%

Copied from the list.
Reading for Cc1cc(C)nc(NS(=O)(=O)c2ccc(N=Cc3c(O)n(C)c(=O)n(C)c3=O)cc2)n1 under gsp antag: -2.6%
Reading for OCC1CN1C1CCCCC1 (configuration not stated) under gsp antag: 1.8%
Reading for CC#CP(=O)(OC)C(O)(CF)c1ccccc1 (configuration not stated) under Menin-MLL FL inh: 1.1

Part of the list above, showing only Sfp PPTase inh and gsp antag:
| Compound | Sfp PPTase inh | gsp antag |
| --- | --- | --- |
| COc1ccc(NP(=O)(Nc2ccc(OC)cc2)Oc2ccccc2)cc1 | 1.9% | 9.6% |
| OCC1CN1C1CCCCC1 (configuration not stated) | . | 1.8% |

Further structures:
SMILES | Sfp PPTase inh | gsp antag | gsp ag | D2 agonist | Menin-MLL FL inh | PINK1 modulator | ClpP mod
CN1Cc2cccnc2N(C)Cc2cc(Cl)ccc21 | -9.4% | -2.4% | -50.7%[inhibitor] | 0.5 | -2.7 | 1.8% | 0.1%
CCOC(=O)C1(c2ccccc2)CCN(Cc2cccc(C(=O)O)c2)CC1 | -9.6% | 8.3% | -2.0% | -0.4 | -0.8 | 0.2%[38.3 µM] | 1.4%
CCCCCCn1c(O)c(C(C)=NC)c(=O)[nH]c1=O | 14.5% | 0.3% | -2.7% | -2.2 | 1.5 | 3.2%[38.3 µM] | 0.0%
Clc1ccc(CCNCc2ccncc2)c(Cl)c1 | -16.0% | 6.0% | 20.4% | 6.5 | 0.1 | -0.9% | -0.7%
CC1CCCCN1C(=O)Cn1cc(C=C2C(=O)N(C)C(=O)N(C)C2=O)c2ccccc21 (configuration not stated) | -0.3% | -7.7% | 0.6% | -1.9 | . | 19.6% | -1.2%
COc1cc2c(cc1OC)-c1c(OC)c(OC)cc3c1[C@H](C2)[N+](C)(C)CC3 | -0.1% | 6.9% | . | 0.0 | 2.6 | 1.9% | 4.0%
COc1ccc(NC(=O)c2cn(CCC#N)nc2-c2ccc([N+](=O)[O-])cc2)cc1 | 14.4% | 8.0% | 10.4%[15.4 µM] | 1.9 | -6.9 | 6.0% | .
COCC(=O)Nc1nnc(SCC(=O)NCc2cccs2)s1 | 13.9% | -0.1% | 15.6% | -3.4 | -2.6 | -1.2% | 0.2%
Cc1cccc(NC(=O)[C@@H](NC(=O)N2C[C@H]3C[C@@H](C2)c2cccc(=O)n2C3)C(C)C)c1 | 11.7% | 4.1% | . | -2.7 | 4.5 | -0.9% | -4.3%
C=CCn1c(O)c(C(CC)=Nc2ccc(C(=O)O)cc2)c(=O)[nH]c1=O | -7.4% | 5.7% | 27.7%[15.4 µM] | -0.8 | 0.9 | 0.1% | .
Cc1nn(Cc2ccccc2Cl)c(Cl)c1C(=O)O | 12.0% | -2.7% | -20.9% | -6.6 | 4.9 | 1.8% | -0.9%
COc1ccccc1-n1c(/C=C/c2ccc(O)cc2)nc2ccccc2c1=O | 0.3% | ? | -1.9% | 6.5 | ? | -2.4% | .
CNCCc1ccc(OC)c(OC)c1 | -10.7% | -2.9% | -30.1%[inhibitor] | -1.9 | 2.3 | 0.1% | -2.4%
O=[N+]([O-])c1ccc(OP(=O)(O)Oc2ccc([N+](=O)[O-])cc2)cc1 | . | 6.7% | ? | -4.0 | . | -1.6% | .
CCCn1c(C)c(C(=O)c2cccc3ccccc23)c2ccccc21 | -14.9% | -8.1% | . | -4.6 | ? | 2.1% | 0.9%
Oc1cc2c(cc1O)[C@H]1c3ccccc3CN[C@@H]1CC2 | 31.6µM* | . | . | . | -9.2 | -0.1% | -0.4%
CSc1ncc(/C=C2/C(=O)NC(=O)N(c3ccc(C(C)C)cc3)C2=O)cn1 | 79.4µM* | 0.3% | -13.5% | -4.2 | 13.9 | 0.0% | 1.0%
O=c1[nH]c(O)c(/C=C2/C=CC(c3cc(Cl)ccc3Cl)=N2)c(=O)[nH]1 | -19.8% | ? | 9.3%[15.4 µM] | -1.4 | ? | -2.0% | .
Cc1ccc(N)cc1C | . | 2.8% | . | -2.9 | . | 2.3% | 2.2%
COC[C@]12CN(C=O)C3C4C(OC)C1[C@@]3(C1CC3(O)C(OC)C(O)C4(OC(C)=O)C1C3OC(=O)c1ccccc1)[C@@H](OC)CC2O (some centres not stated) | 8.3% | . | . | . | -7.1 | 0.6% | .
CN1C(=O)NC(=O)C2(CCCC2)C1=O | . | 4.1% | 17.8% | 3.3 | . | 2.1% | .
O=C1NCN(c2ccccc2)C12CCN(C(c1cccs1)c1nnnn1C1CCCCC1)CC2 (configuration not stated) | . | . | . | 3.4 | . | -0.4% | -0.8%
CC1=NN(c2ccccc2)C(=O)/C1=C/c1c(O)[nH]c(=S)[nH]c1=O | 50.1µM* | 5.1% | 1.0% | -4.4 | 6.6 | 2.0% | 25.1µM*
C[N+](C)(C)Cc1ccccc1 | 10.9% | -5.9% | . | -2.6 | -1.4 | 1.0% | -1.4%
CCCCCNc1c(C(=O)OCC)c(=O)[nH]c2ccccc12 | -13.5% | 2.9% | ? | -1.9 | -0.7 | -2.4% | -3.8%
COc1ccccc1N1CCN(Cc2ccc(Br)cc2)CC1 | ? | -1.2% | ? | -2.7 | -1.8 | ? | -2.3%
Cc1noc(C(=O)Nc2sc3c(c2C#N)CCC3)c1Cl | -24.8% | -20.7% | -35.7%[inhibitor] | -4.3 | 3.9 | 1.3% | 1.9%
CNS(=O)(=O)c1ccc(N=Cc2c(O)n(-c3cccc(C)c3)c(=O)[nH]c2=O)cc1 | 1.5% | 6.9% | 8.0%[15.4 µM] | -3.0 | 6.9 | -0.5% | .
